Compound activity (PubChem)
CDC25B-CDK2 inh = human CDC25B-CDK2/CyclinA binding inhibition; P30305+P24941; HTRF CDC25B-CDK2/CyclinA binding, anti-His/anti-Flag; stronger effect = higher value; z-score (no concentration beside the values); hit rate 0.72% among 94,000; AID 1259370;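 further: score is relative to mean and SD of negative controls; strong numbers were not always called active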
TAR Tat displ = HIV-1 TAR-Tat binding disruption. HIV-1 TAR RNA, Tat peptide displacement FRET; stronger effect = higher value. z-score (no concentration beside the values). hit rate 0.6% among 100,000;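 further: score is relative to mean and SD of negative controls; some compounds called inactive have numbers as strong as hits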
* hit, by the source's call; . = not tested or not shown.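 How the source made its calls: active means z-score from 3 up in half or more of its runs; inactive means the rest.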 Compounds were not picked by outcome; 0.9% or so of the library scored in one or more.

SMILES | CDC25B-CDK2 inh | TAR Tat displ
CC(=O)N1CC(C)Sc2ccc(S(=O)(=O)Nc3ccc(Br)c(C)c3)cc21 (configuration not stated) | . | 1.1
O=C(c1cnn(-c2ccc(F)cc2)c1-n1cccc1)N1CCN(c2ccccc2)CC1 | . | 1.7
O=C1/C(=C\c2cccs2)N=C(c2ccccc2)N1Cc1ccc(Cl)cc1 | -0.44 | .
CC(=O)N1c2ccccc2C(=O)C1N1CCN(C2CCCCC2)CC1 (configuration not stated) | . | 0.62
CCc1nn2c(=O)cc(CSc3nnc(-c4ccc(Cl)cc4)o3)nc2s1 | -1.2 | 0.92
Cc1cccc2c1NC(=O)C2(O)CC(=O)c1ccccc1Br (configuration not stated) | . | 0.32
O=C(c1cnccn1)N1CCC(NS(=O)(=O)c2ccc(Cl)cc2)CC1 | . | 0.67
CCCCN(C)C(=O)C(=O)c1c(C)n(C)c2ccccc12 | -2.4 | .
CC1CC(C)CN(C2CCCCC2NS(=O)(=O)c2ccc(Cl)cc2)C1 (configuration not stated) | -0.64 | 1.1
CC(C)c1ccc(C2CC(=O)N3CN(Cc4ccccc4)CSC3=C2C#N)cc1 (configuration not stated) | 5* | 0.39
CCN1CCCC1CNS(=O)(=O)c1cc(-c2onc(C)c2C)ccc1OC (configuration not stated) | . | 1.7
O=C1N=C2SC=CN2C(=O)C1Cc1ccccc1 (configuration not stated) | -0.26 | 0.92
CC(=O)N1CCOc2ccc(S(=O)(=O)N3CCCC3C(=O)NC3CCCC3)cc21 (configuration not stated) | . | -1.4
O=C1CC(c2ccsc2)c2c(-c3ccccc3)nn(-c3ccccc3)c2N1 (configuration not stated) | 1.4 | 0.41
O=C(Nc1c[nH]c2ccccc2c1=O)NC1CCN(Cc2ccccc2)CC1 | -1.3 | -0.25
CCOC(=O)/C(C)=N/Nc1ccc(OC(F)(F)F)cc1 | -1.8 | .
O=C(CCC(=O)N1CCOc2ccc(Cl)cc21)NC1CCCC1 | -0.24 | 0.97
O=C(c1ccc(F)cc1)c1cc2ccccc2o1 | -1.6 | -1.5
Cn1c(=O)c2[nH]c(N3CCN(CCO)CC3)nc2n(C)c1=O | -1.4 | 0.06
CC(C)(C)C1CCc2c(sc3nc(CCC(=O)N4CCN(C5CCCCC5)CC4)[nH]c(=O)c23)C1 (configuration not stated) | . | -0.49

For convenience, some entries already given:
SMILES | CDC25B-CDK2 inh | TAR Tat displ
CC(=O)N1CC(C)Sc2ccc(S(=O)(=O)Nc3ccc(Br)c(C)c3)cc21 (configuration not stated) | . | 1.1
O=C(c1cnn(-c2ccc(F)cc2)c1-n1cccc1)N1CCN(c2ccccc2)CC1 | . | 1.7
O=C1/C(=C\c2cccs2)N=C(c2ccccc2)N1Cc1ccc(Cl)cc1 | -0.44 | .
CC(=O)N1c2ccccc2C(=O)C1N1CCN(C2CCCCC2)CC1 (configuration not stated) | . | 0.62

Next part:
SMILES | CDC25B-CDK2 inh | TAR Tat displ
O=S(=O)(Oc1ccc(Cl)c(Cl)c1)c1c(Cl)sc(Cl)c1Br | -2.6 | .
CC1CCCCN1C(=O)CSc1nc(-c2ccco2)cc(C(F)(F)F)n1 (configuration not stated) | -0.98 | 4.3
CCS(=O)(=O)c1nc(S(=O)(=O)c2ccc(Cl)cc2)c(NCc2ccccc2)s1 | -24 | 0.99
CCn1c(N)c(C(=O)N2CCOCC2)sc1=S | -2.5 | .
O=S1(=O)N=CNc2ccc(S(=O)(=O)NCc3cccs3)cc21 | . | -2.6
Cc1cccc(Nc2nnc(C(C)(C)C)c(=O)[nH]2)c1C | -0.02 | .
O=S(=O)(NCCc1csc(-c2cccc(F)c2)n1)c1ccc2c(c1)OCCO2 | . | 1.3
COCCNC(=O)C1CCCN(S(=O)(=O)N(C)C2CCCCC2)C1 (configuration not stated) | . | 5.2
CC(C)NC(=O)NNc1c(Cl)cccc1Cl | 0.85 | .
COc1ccc2c(c1)c1nc(SCc3cccnc3)n(CCO)c(=O)c1n2C | 0.65 | 1.6
Cc1cc(C(=O)/C(C#N)=N/Nc2cccc(Cl)c2)n(C(C)(C)C)n1 | -1.1 | .
Nc1nc2ccc(C(=O)N3CCOCC3)cc2s1 | -0.52 | -0.61
Cc1ccc(-c2cn3c4ccccc4nc3n2CCO)cc1 | -0.41 | 0.13
CC1CN(S(=O)(=O)c2ccc(NC(=O)c3nn(-c4ccc(F)cc4)ccc3=O)cc2)CC(C)O1 (configuration not stated) | 0.13 | 0.4
CCC(C(=O)NCCc1cccs1)N1C(=O)CCn2nc(C)cc21 (configuration not stated) | . | -0.4
Cc1csc2nc(CSCC(=O)Nc3ccccc3)cc(=O)n12 | . | -0.1
CCCCCSc1nnc2c(n1)OC(C)=Nc1ccccc1-2 | 0.01 | -0.35
COC1=C2C[C@@H](C)C[C@H](OC)[C@H](O)[C@@H](C)/C=C(\C)[C@H](OC(N)=O)[C@@H](OC)/C=C\C=C(/C)C(=O)NC(=CC1=O)C2=O | . | -0.27
O=S(=O)(NCCc1csc(-c2cccc(F)c2)n1)c1cccc(Cl)c1 | . | 1.4
COc1ccc(C2c3sc(=O)[nH]c3SC3C(=O)NC(=O)C32)cc1 (configuration not stated) | -0.62 | .
CSc1nc2c(c(Nc3cccc(O)c3)n1)CCC2 | 1.2 | 0.11
Nc1nccc(/C=C/c2c(F)cccc2Cl)n1 | -0.92 | .
c1ccc(C2Nc3cccc4cccc(c34)N2)cc1 | 0.48 | 10*
C[C@H](CCC(=O)O)[C@H]1CCC2C3C(=O)CC4CC(=O)CC[C@]4(C)C3CC(=O)[C@@]21C (some centres not stated) | . | 0.77
O=[N+]([O-])c1ccc(/C=N/Nc2nc(-c3ccccc3)cc(-c3ccc(Br)cc3)n2)cc1 | -1.4 | .
S=c1[nH]c(=S)c2[nH]cnc2[nH]1 | 1 | .
CCCc1cc(=O)n2[nH]c(NC(=O)CC)nc2n1 | -1.9 | 0.5
Cc1ccc(CNC(=O)Cn2cnc(S(=O)(=O)N3CCCCC3)c2)o1 | . | 0.31
COc1ccc2occ(CC(=O)Nc3nc(C)c(C(=O)OCC(C)C)s3)c2c1 | 0.63 | -0.03
O=C(NC1CCCc2ccccc21)c1cc(-c2cccnc2)nc2ccccc12 (configuration not stated) | . | 1.2
Cc1c(C(=O)N2CCCC2)oc2c1-c1nn(CC(=O)NCCCOC(C)C)cc1CC2 | . | 1.8
COC(=O)C1CN(C(=O)c2cccs2)c2ccccc2O1 (configuration not stated) | -2.5 | 2.6
Cc1ccc(Sc2ncccc2-n2c(C)ccc2C)cc1 | -1.2 | .
COc1ccc(Cn2cc3c(-c4ccc(F)cc4)nnc-3c3cc4c(cc32)OCCO4)cc1 | -2.6 | 1.2
CCN(Cc1ccccc1)S(=O)(=O)c1cc(-c2cc(C)no2)ccc1C(C)C | . | 2.2
O=C1COc2ccc(S(=O)(=O)N3CCCCC3)cc2N1 | . | 3.7
CC1CC(=O)N(CC(=O)NC2CCCC2)c2ccccc2S1(=O)=O (configuration not stated) | -0.96 | 0.03
CCCCc1nn2c(=O)cc(COC(=O)c3ccccc3Br)nc2s1 | . | -0.05
O=C(Cc1c[nH]c2ccccc12)N(CC1CCCO1)C1(C(=O)NC2CCCCC2)CCCCC1 (configuration not stated) | -1 | .
O=C(Cn1c(=O)c2ccccc2n2c(=S)sc(-c3cccc(Cl)c3)c12)NCC1CCCO1 (configuration not stated) | -0.11 | -6.3
O=C(Nc1cc(-c2ccc(F)c(F)c2)no1)c1ccc(F)cc1 | -0.91 | -1.1
O=C(Nc1ccc(F)cc1)C1CCCN(S(=O)(=O)c2ccc(-c3ccc(=O)[nH]n3)s2)C1 (configuration not stated) | . | 2.8
CN(C)c1ccc(C(=O)Cc2ccccc2Cl)cc1 | -2.6 | .
CC1=C(c2ccccc2)S(=O)(=O)NC1=NCc1ccc(Cl)cc1 | -1.5 | -1.5
Cc1cc(-c2ccccc2)nc2oc(C(=O)c3ccc(Cl)cc3)c(N)c12 | -1.8 | .
CCN1CNC(=S)N(c2ccccc2OC)C1 | 0.73 | .
CC(C)N(Cc1ccccc1)C(=O)c1ccccc1C(=O)O | -1.8 | .
CN(C)CCNC(=O)c1ccc(Cn2c(=O)c3cccn3c3cccnc32)cc1 | . | 0.53
O=c1c(S(=O)(=O)c2cc(F)cc(F)c2)c[nH]c2cc(Cl)ccc12 | -2.4 | 0.94
COc1ccc(OCc2nn3c(-c4ccccc4Br)nnc3s2)cc1 | -1.6 | 0.95
Cn1ncc2c(Nc3cccc(Cl)c3)nc(NCCc3ccccc3)nc21 | . | 2.3
Cc1ccc(-n2ncc3c(N4CCc5ccccc54)ncnc32)cc1C | . | 0.94
O=C(OCCN1CCCC1=O)c1cnn2c(C(F)(F)F)cc(-c3ccccc3)nc12 | 1.3 | 0.25
CC1=C(c2ccccc2)S(=O)(=O)N=C1Nc1ccc(F)cc1F | -1.3 | -0.62
Cc1cc(=O)n(Cc2cc(=O)n3ccccc3n2)c2c1c(C)nn2-c1ccccc1 | . | 1.3
Cc1cc(C)cc(NCc2c(CO)cnc(C)c2O)c1 | . | 0.17
COc1ccc(OC)c(S(=O)(=O)Nc2ccn[nH]2)c1 | -1.1 | .
O=C(Cn1c(=O)oc2ccccc21)NCCN1CCCc2ccccc21 | 0.29 | .
Cc1c(-c2nc(-c3ccc4c(c3)OCO4)no2)nnn1-c1ccc(Br)cc1 | . | 0.79
COc1ccc(C2CC(=O)c3cnc(NC4OC(=O)c5ccccc54)nc3C2)cc1OC (configuration not stated) | -0.94 | -1.5
Later entries.
SMILES | CDC25B-CDK2 inh | TAR Tat displ
Cc1ccc(S(=O)(=O)c2nc(S(C)(=O)=O)sc2N2CCCC2)cc1 | -0.34 | 1
O=c1[nH]c2ncccc2nc1-c1ccccc1 | -1.8 | -0.33
COc1ccc(Br)cc1S(=O)(=O)Nc1cc(-c2cn3ccccc3n2)ccc1C | -0.87 | 1.9
O=C(CCC(=O)N1CCSc2ccccc21)NC1CCCCC1 | . | 1.6
COC(=O)c1ccccc1SN | . | 1.6
CCOC(=O)N1CCN(C(=O)c2ccc([N+](=O)[O-])o2)CC1 | -0.39 | -0.77
O=C(CN1C(=O)c2cccnc2Oc2ccccc21)N1CCOCC1 | . | 0.75
O=C(Nc1ccc2c(c1)CS(=O)(=O)C2)c1cccs1 | -0.88 | .
O=C(Cn1c(=O)sc2cc(S(=O)(=O)N3CCc4ccccc4C3)ccc21)N1CCOCC1 | . | 0.75
O=C(NCCCN1CCN(c2ccccc2F)CC1)NC1COc2ccccc2C1 (configuration not stated) | . | 0.89
Cn1c(=O)c2c(nc(Sc3nc4ccccc4n3CC(=O)NC3CCCCC3)n2C)n(C)c1=O | 0.11 | -0.19
Cc1cc(C)n(CC(=O)n2c(C)c(C)c3ccccc32)n1 | -1.9 | 0.53
O=C1CC(=O)Nc2cc(S(=O)(=O)N3CCOCC3)ccc2N1 | . | 0.84
CCc1cc2c(cc3c(=O)n(CC(=O)NCc4ccc5c(c4)OCO5)nc(CC)n32)s1 | -2.5 | 1.4
CC(C)(C)C(=O)CSc1nc2ccccc2c(=O)n1CCCN1CCCC1=O | -1.8 | 1.7
COCCNc1cc(C)nc2ccc(C)cc12 | 0.57 | -0.32
Cc1noc(C)c1S(=O)(=O)NCc1ccccn1 | -2.5 | .
Cc1cccc(C)c1OCc1nc2c3cnn(Cc4ccccc4)c3ncn2n1 | 0.6 | -0.39
Cc1ccc(-c2nn(C)c(=O)c3ccccc23)cc1S(=O)(=O)NC(C)C | -2.3 | 1.4
CC1(C)Cc2nc3sc4c(SCC(=O)Nc5ccc(Cl)cc5)ncnc4c3cc2CO1 | . | -0.49
COc1cc(C2CC(=O)Nc3cc4c(cc32)OCO4)ccc1O (configuration not stated) | -2.2 | .
CC1=NN(C(=O)c2cccnc2)C(O)(C(F)(F)F)C1 (configuration not stated) | -1.6 | .
O=C(CC1(O)C(=O)N(CCc2ccccc2)c2ccc(Cl)cc21)c1ccccc1 (configuration not stated) | -1.7 | .
O=C(c1ccco1)N1CCN(C(=O)c2cnn(-c3cccc(F)c3)c2-n2cccc2)CC1 | . | 0.28
CCc1cc(=O)n2[nH]c(NCc3ccc(SC)cc3)nc2n1 | -1.9 | -0.75
COc1ccc(N2CSC3=C(C#N)C(c4cccc(Br)c4)CC(=O)N3C2)c(OC)c1 (configuration not stated) | 1.8 | 0.31
COc1ccc(NC2OC(=O)c3ccccc32)c(OC)c1 (configuration not stated) | -1.1 | 1.8
CSc1ccccc1C(=O)c1ccccc1C(=O)O | -1.5 | .
Cc1cc(C)n(Cc2c(C(=O)NCCN3CCCC3)noc2C)n1 | . | 0.79
Oc1ccccc1C1CC(c2ccc3c(c2)OCO3)=NC(c2cccc(F)c2)N1 (configuration not stated) | -1.4 | .
CCC(=O)NCCc1cc2cc(C)c(C)cc2[nH]c1=O | -2.4 | .
CCCc1cc(-c2[nH]ncc2-c2ccc3c(c2)OCCCO3)c(O)cc1O | 0.88 | .

Retrieved by structure from the list above:
SMILES | CDC25B-CDK2 inh | TAR Tat displ
CSc1ccccc1C(=O)c1ccccc1C(=O)O | -1.5 | .
CCCc1cc(-c2[nH]ncc2-c2ccc3c(c2)OCCCO3)c(O)cc1O | 0.88 | .
CC1=NN(C(=O)c2cccnc2)C(O)(C(F)(F)F)C1 (configuration not stated) | -1.6 | .
COc1ccc(NC2OC(=O)c3ccccc32)c(OC)c1 (configuration not stated) | -1.1 | 1.8
Oc1ccccc1C1CC(c2ccc3c(c2)OCO3)=NC(c2cccc(F)c2)N1 (configuration not stated) | -1.4 | .
COc1ccc(N2CSC3=C(C#N)C(c4cccc(Br)c4)CC(=O)N3C2)c(OC)c1 (configuration not stated) | 1.8 | 0.31
O=C(c1ccco1)N1CCN(C(=O)c2cnn(-c3cccc(F)c3)c2-n2cccc2)CC1 | . | 0.28
